S aureus helic: S. aureus DNA helicase inhibition; purified S. aureus helicase, fluorescence unwinding assay; about half of the hits fall short of the stated cut; inhibition, %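 (tested at about 80 µM)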; 120,000 tested, 0.05% active; AID 485395;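 active = both duplicates at 50% or more, or one of them with a favoured structure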;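 note: 0% = mean of negative control wells and 100% = mean of positive control wells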
MgrA DNA FP: alters Staphylococcus aureus MgrA binding to DNA; fluorescence polarization; inhibition, %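 (about 10 µg/mL by stock and volumes)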; 84,000 tested, 0.13% active;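 active = above 50% in either of two replicates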;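 note: 0% = protein plus DNA without compound and 100% = DNA alone without protein; higher means less MgrA bound to DNA so lower polarization; one replicate is shown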
The depositor's hits bear a star; x = not tested or not shown. An excerpt. The share of hits here may be higher or lower than overall.

The line under a structure holds: S aureus helic | MgrA DNA FP
> CC1CCN(C(=O)CSc2nnc3sc4ccccc4n23)CC1
 : -17.0 | x
> c1ccc(C2CC3CC(c4ccccc4)N2O3)cc1 (configuration not stated)
 : 17.0 | x
> CC1(C)CC(=O)C/C(=N/NC(N)=S)C1
 : 7.0 | 1.5
> O=C(CN1CCN(CCN2C(=O)c3cccc4cccc(c34)C2=O)CC1)c1ccc(F)cc1
 : x | 1.6
> CN(C)C(=O)CSc1nc(-c2ccccc2)c(-c2ccccc2)o1
 : -11.0 | 2.9
> Cc1nc(-c2ccc(S(=O)(=O)N3CCCN(c4ccc(C(F)(F)F)cn4)CC3)s2)cs1
 : -17.0 | x
> CCCSc1ccc2nc(NC(C)=O)[nH]c2c1
 : x | 1.3
> Cc1cc(=O)[nH]c(N2CCCCC2)n1
 : 10.0 | -0.9
> O=C(O)C1CCCCC1C(=O)NCC1CCCO1 (configuration not stated)
 : 9.0 | x
> O=C(COc1ncnc2sccc12)N1CCc2ccccc21
 : -6.0 | x
> CC(NCC(O)COc1ccc(Br)cc1)c1ccccc1 (configuration not stated)
 : 14.0 | x
> CC1Cc2ccccc2N1C(=O)CSc1ccccc1 (configuration not stated)
 : -1.0 | -2.6
> O=S(=O)(c1ccc2c(c1)OCCO2)N1CCCCC1
 : 10.0 | x
> CC(=O)Nc1ccc(C(=O)OCC(=O)N2CCCC(C)C2)cc1 (configuration not stated)
 : 11.0 | 1.0
> CSc1ccc(-c2ccco2)nn1
 : 2.0 | 1.6
> CN(C(=O)CSC1=NCCS1)C1CCCCC1
 : -11.0 | 0.5
> CCc1ccc(C(=O)Nn2cnnc2)cc1
 : 8.0 | -1.9
> CCN1CCCC1CNC(=O)Cn1c(=O)c2cccn2c2ccccc21 (configuration not stated)
 : 0.0 | 0.0
> Cc1nn(CC(C)C)c2sc(C(=O)N3CCCC3c3nc4ccccc4s3)cc12 (configuration not stated)
 : -5.0 | x
> Cn1c(O)c(C=Nc2cccc(Cl)c2)c2ccccc21
 : 8.0 | 5.2
> COc1ccc2cc(S(=O)(=O)n3nnc4ccccc43)ccc2c1
 : -22.0 | x
> C=CCn1cnnc1SCC(=O)NCc1cc(C)c(O)c(C)c1
 : 4.0 | x
> Cc1nn(C)c(C)c1NC(=O)CC12CC3CC(CC(C3)C1)C2
 : 6.0 | -0.1
> O=C(NC1CCCCC1)C1CCC(Cn2c(=S)[nH]c3ccccc3c2=O)CC1 (configuration not stated)
 : 1.0 | 0.7
> O=C(NCc1ccccc1Cl)c1cnccc1C(F)(F)F
 : x | 0.5
> COc1ccc(OCCOC(=O)c2ccc(OCc3c(C)noc3C)cc2)cc1
 : 4.0 | x
> CCc1cccc(NC(=O)C2CCCN(c3ncccn3)C2)c1 (configuration not stated)
 : 20.0 | -0.2
> COc1ccc(-c2cc(=O)oc3c(C)c(O)ccc23)cc1
 : -5.0 | 2.8
> C/C(=N\NC(=O)COc1ccc(C#N)cc1)c1ccc(N2CCOCC2)cc1
 : -1.0 | x
> CC(C)(C)OC(=O)N1CCCN(S(=O)(=O)c2cc(Cl)ccc2Cl)CC1
 : x | 0.8
> CCC(=O)Nc1cccc(NC(=O)CSc2nnnn2C2CCCC2)c1
 : 5.0 | 1.7
> Cc1cc(=O)n2[nH]c(SCc3ccc(Cl)cc3)nc2n1
 : -1.0 | x
> CC1(C)CCc2cc(CN3CCN(c4ccc(C(F)(F)F)cn4)CC3)ccc2O1
 : 18.0 | x
> CCN/C(C)=C/c1nsc(Nc2ccc(Cl)cc2)n1
 : -9.0 | x
> CC(C)(Oc1ccc(Cl)cc1)C(=O)Nc1ccc2oc(-c3cccnc3)nc2c1
 : 7.0 | -0.5
> O=C(NN1CCCCC1)C(O)(c1ccsc1)c1ccsc1
 : 5.0 | 0.5
> O=C(NCc1ccccc1)C1CCCN1S(=O)(=O)c1cccc2cccnc12 (configuration not stated)
 : 8.0 | x
> COc1ccc(N2CCN(C(=O)c3ccc(-n4cnnc4)cc3Cl)CC2)cc1
 : -2.0 | -2.6
> CN(C)C(=O)c1cc(-c2ccccc2)c(C(F)(F)F)s1
 : x | -1.6
> N#CC1=C(N)NC(SCc2ccccc2)=C(C#N)C1c1ccccc1Cl (configuration not stated)
 : 15.0 | 4.5
> O=C(CCN1CCCCC1)c1cc2ccccc2o1
 : 3.0 | -5.2
> COc1c(C(C)=O)c(O)c(OC)c2occc12
 : x | -3.3
> C1CCN(CC2COC3(CCCC3)O2)C1 (configuration not stated)
 : -11.0 | 0.1
> CCCN(CC(=O)Nc1ccccc1OC)CC(=O)c1c(N)n(Cc2ccccc2)c(=O)n(C)c1=O
 : -5.0 | x
> Cc1noc(C)c1NC(=O)NCC1CCN(S(=O)(=O)c2ccccc2)CC1
 : -9.0 | x
> COc1ccc(Cc2cc(-c3cccs3)n[nH]c2=O)c(OC)c1OC
 : x | -0.3
> O=C(CSc1ncnc2c1oc1ccccc12)NC1CCCCC1
 : 2.0 | x
> O=C(Nc1ccc(Cl)cc1)Sc1ccc(F)cc1F
 : x | 3.0
> CCOC(=O)c1sc(COc2ccccc2OC)nc1C
 : x | 3.4
> CC(O)CNC(C)C(=O)Nc1c(Cl)cc(Cl)cc1Cl (configuration not stated)
 : 8.0 | x
> O=C(Cn1cnc2ccccc21)N1CCCC1
 : 2.0 | 0.7
> COc1ccccc1OCC#CCSc1ncccn1
 : 15.0 | 5.7
> C[C@]12CC[C@@H]3c4ccc(O)cc4CC[C@H]3[C@@H]1C[C@@H](O)[C@@H]2O
 : x | 0.4
> O=C(CSc1nc2ccccc2s1)N=Nc1c(O)n(CN2CCCC2)c2ccccc12
 : 11.0 | 7.2
> Cc1onc(-c2ccccc2Cl)c1C(=O)NC(=S)NC1CCS(=O)(=O)C1 (configuration not stated)
 : 2.0 | x
> C/C(=N\N)c1ccc(OC(C)C)c(CN2CCOCC2)c1
 : -5.0 | 0.2
> COc1ccc(/C(C)=N/NC(=O)CC2(C)OCCO2)c(OC)c1
 : 3.0 | 1.3
> O=C(CSC1=NCCS1)NC1CCCCC1
 : 13.0 | -3.1
> COC(=O)c1ccc(C[N+]2(C)CCCCC2)cc1
 : 3.0 | 2.0
> O=C(Nn1c(Cc2ccccc2)nc2ccccc2c1=O)c1ccco1
 : 14.0 | -22.7

(list continues)
The line under a structure holds: S aureus helic | MgrA DNA FP
> O=C(CSc1ccnc(=O)[nH]1)N1CCCCC1
 : 1.0 | x
> CCNC(=O)Oc1ccccc1
 : x | 0.0
> c1ccc2c(N3CCOCC3)nnc(N3CCOCC3)c2c1
 : 19.0 | x
> O=C(CCCc1c[nH]c2ccccc12)N1CCN(c2ccc(F)cc2)CC1
 : 15.0 | x
> O=C(NCc1ccccn1)c1ccccc1C(=O)c1cc(C(F)(F)F)cc(C(F)(F)F)c1
 : x | -3.8
> FC(F)(F)c1cc(NC(=S)N2CCCCC2CCN2CCOCC2)cc(C(F)(F)F)c1 (configuration not stated)
 : x | -2.1
> CCCC(=O)Nc1c2c(nc3ccccc13)N(c1ccccc1)CC2
 : 4.0 | 0.1
> NC(=S)c1ccc(C2SCCS2)cc1
 : x | -1.5
> CCS(=O)(=O)N1CCN=C1SCc1ccccc1
 : 2.0 | x
> O=S1(=O)N=C(Oc2ccccc2)c2ccccc21
 : -17.0 | 0.8
> CC(Sc1nnc(CC(=O)Nc2ccccc2)n1C)C(=O)Nc1nccs1 (configuration not stated)
 : 1.0 | -1.1
> CC1=C(OC(=O)c2cccs2)C(=O)CC1
 : x | 0.1
> CCOC(=O)N1CCC(NC(=O)Cn2nc(Cc3cccnc3)c3ccccc3c2=O)CC1
 : -4.0 | -0.3
> CCOc1ccc(CNC(=O)CCC(=O)N2CCOc3ccccc32)cc1
 : 17.0 | x
> COc1ccc(C2CC(=O)Oc3ccc(C(C)(C)C)cc32)cc1 (configuration not stated)
 : 8.0 | 7.0
> CCOc1nc(-c2ccc(Cl)cc2)nc2ccccc12
 : 11.0 | 1.3
> Cc1ccccc1OCC(=O)NC(C)c1ccccc1 (configuration not stated)
 : 10.0 | x
> Cc1onc(-c2c(Cl)cccc2Cl)c1C(=O)Oc1ccc(-c2ccc(OC(=O)c3c(-c4c(Cl)cccc4Cl)noc3C)cc2)cc1
 : x | -0.1
> CCOC(=O)/C(C#N)=C/N1CCCc2ccccc21
 : 9.0 | 0.2
> Cc1cc(=O)[nH]c(N/N=C/C(C)c2ccccc2)n1 (configuration not stated)
 : 18.0 | x
> CCOc1ccc(-c2n[nH]c(=S)n2C2C=CCCC2)cc1 (configuration not stated)
 : 9.0 | 1.8
> CCOc1ccc(OCCn2ccnc2)cc1
 : 7.0 | 0.3
> CC12COC3(CN)CC1CCC32C (configuration not stated)
 : -6.0 | x
> NC(N)=Nc1nc2ccccc2[nH]1
 : 2.0 | -0.7
> O=C1Nc2ccccc2C1(O)C(F)(F)F (configuration not stated)
 : 25.0 | x
> CCOCC(=O)Nc1ccc(OCC)cc1
 : 10.0 | -0.4
> O=c1oc2ccccc2cc1-c1nnc(-c2ccncc2)o1
 : 11.0 | -0.6
> N#Cc1nc(-c2ccccc2Cl)oc1N1CCCC1
 : 4.0 | x
> COc1ccccc1/C=C/C(=O)N1CCCC(c2ccccc2)C1 (configuration not stated)
 : 1.0 | -1.1
> Cc1onc(-c2c(Cl)cccc2Cl)c1NC(=O)N/N=C/c1ccccn1
 : -7.0 | x
> O=S(=O)(Cc1ccccc1)n1cc(Cl)cn1
 : 5.0 | 2.4
> CCC(C)(Nc1n[nH]c(=O)[nH]c1=O)C(=O)O (configuration not stated)
 : 23.0 | -1.7
> CC(C)c1ccccc1-n1cc[nH]c1=S
 : -14.0 | x
> Cc1cc2c(NC(=O)CSCC(=O)O)cccc2nn1
 : x | 0.1
> O=C1NN=C(c2cc3ccccc3oc2=O)CC(c2ccco2)N1 (configuration not stated)
 : -3.0 | 0.2
> NC1c2ccccc2CCC1Cc1ccco1 (configuration not stated)
 : 12.0 | x
> CCOc1ccc(Br)cc1S(=O)(=O)Nc1ncn[nH]1
 : 15.0 | -3.4
> CC1Oc2ccc(N)cc2N(C)C1=O (configuration not stated)
 : 10.0 | -2.5
> CCOC(=O)N1CCN(C(=O)C(C)Oc2ccc(C(C)(C)C)cc2)CC1 (configuration not stated)
 : 8.0 | 0.5
> CCOC(=O)N1CCC(NCc2ccco2)CC1
 : 3.0 | x
> CC1(C)N=C(c2ccc(Cl)cc2)C(=S)N1
 : -26.0 | x
> CC1CCC(=O)C(C2(O)C(=O)Nc3ccccc32)C1 (configuration not stated)
 : -1.0 | 1.9
> Cc1ccc(N2C(=O)c3ccccc3C2(O)Cc2ccccc2)cc1 (configuration not stated)
 : 1.0 | -0.5
> Cc1cc(-n2c(SCc3ccccc3Cl)nc3n[nH]c(C)c3c2=N)ccc1Cl
 : -4.0 | x
> CSc1ccccc1-n1nnnc1SCc1ccccc1
 : 13.0 | -0.8
> O=C(NC1C2CC3CC(C2)CC1C3)c1ccc(Br)o1 (configuration not stated)
 : -5.0 | -0.3
> Cc1ccc(C)c(NC(=O)C(NCC(C)(C)N2CCOCC2)c2ccccc2)c1 (configuration not stated)
 : 12.0 | x
> CCOC(=O)C1CCCN(CCCc2ccccc2)C1 (configuration not stated)
 : 5.0 | x
> O=C(COc1nccc2ccccc12)N1CCCc2ccccc21
 : -24.0 | x
> NC(=S)N/N=C1\CCCC\C1=C/c1ccco1
 : 8.0 | 15.2
> CCCCc1nc(Cl)c(CO)n1Cc1ccc(-c2ccccc2-c2nn[nH]n2)cc1
 : x | -0.2
> C=CCN1C(=O)/C(=C2\SC(N)=NC2=O)c2ccccc21
 : -9.0 | 2.4
> c1ccc(-c2nc(-c3ccn[nH]3)cs2)cc1
 : 27.0 | x
> O=C(CSc1nc2ccccc2c(=O)n1-c1ccccc1)NCCc1ccccc1
 : -13.0 | 2.3
> Cc1cc(NCc2cccnc2)no1
 : -15.0 | x
> COc1ccc2c(c1)C(=O)N(Cc1ccccc1)C(=O)C2
 : -12.0 | -3.0
> CCN(CC)C(=O)Sc1c(Br)cc(Br)cc1Br
 : x | 2.2
> O=C(O)c1ccccc1Nc1ccccn1
 : 0.0 | 1.4
> COc1cc(/C=N/Nc2nc(C)cc(=O)[nH]2)ccc1O
 : -1.0 | x
> O=C(NC1CCCc2ccccc21)c1cccs1 (configuration not stated)
 : -7.0 | x

3 compounds already listed, ordered by number of heavy atoms, rising.
The line under a structure holds: S aureus helic | MgrA DNA FP
> CCN(CC)C(=O)Sc1c(Br)cc(Br)cc1Br
 : x | 2.2
> CC1CCC(=O)C(C2(O)C(=O)Nc3ccccc32)C1 (configuration not stated)
 : -1.0 | 1.9
> O=C(CSc1nc2ccccc2c(=O)n1-c1ccccc1)NCCc1ccccc1
 : -13.0 | 2.3

More records
The line under a structure holds: S aureus helic | MgrA DNA FP
> CC1=CC(c2ccccc2)=Nc2ccc(C)cc2N1
 : 0.0 | -0.8
> Clc1ccccc1-c1nnc(CNC2CC2)o1
 : 10.0 | x
> Cc1cccc2c(-c3ccccc3)cc(=O)[nH]c12
 : 9.0 | -0.1
> CCc1ccc(NS(=O)(=O)c2ccc3nc(-c4ccccc4)[nH]c3c2)cc1
 : -13.0 | 0.3
> CCC1CCCCN1S(=O)(=O)c1ccc(NC(=O)c2ccncc2)cc1 (configuration not stated)
 : 10.0 | 1.5
> CC1=NN(c2cccc(C(=O)O)c2)C(=O)/C1=C\c1ccc(-c2cc([N+](=O)[O-])ccc2O)o1
 : x | 8.6
> CC(C(=O)N1CCc2ccccc21)N(C)CC(=O)Nc1ccccc1Cl (configuration not stated)
 : 17.0 | x
> CN1C(=O)/C(=C/c2ccccc2Cl)Sc2ccc(C(=O)O)cc21
 : 16.0 | 0.9

Compound profiles (already shown).
CC(C(=O)N1CCc2ccccc21)N(C)CC(=O)Nc1ccccc1Cl (configuration not stated) is listed with S aureus helic = 17.0; MgrA DNA FP = x
CCc1ccc(NS(=O)(=O)c2ccc3nc(-c4ccccc4)[nH]c3c2)cc1 is listed with S aureus helic = -13.0; MgrA DNA FP = 0.3

Screens from PubChem BioAssay.
